# PrP UTR inh: inhibition of PrP 5' UTR reporter expression. 340,000 tested, 0.35% active. inhibition, % (concentration not given with the values). AID 488862, 2010. cell-based PrP 5' UTR mRNA reporter, plate reader;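 active = every replicate at 50% or more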;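 also: 0 = median of the neutral control wells; tested in H4 reporter cells; numbers are from one replicate; inactives centre near -14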
# RN4220 kill: growth inhibition of S. aureus RN4220, primary screen, OD600 | 16 h | inhibition, % (concentration not given with the values) | 330,000 tested, 0.33% active;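 active = z-score of -3 or lower and OD600 up to 0.18 on both plates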;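 also: plate controls were untreated cells for no effect and reference antibiotic for full effect; stock transfer was 100 nL into about 80 µL; one replicate is shown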
# BJeLR lethal: MLPCN primary cell-based screen for lethality selective to Ras in HRASV12 cells; BJeLR (HRASV12) viability, CellTiter-Glo ATP luminescence, 48 h; reference of the scale not given here; inhibition, % (no concentration beside the values); 300,000 tested, 0.17% active; AID 1554, 2009;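 active = replicate mean above 50%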;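 also: 50 nL library stock added to about 25 µL; numbers are from one replicate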
# Autofluor counter: flagged as autofluorescent in microsphere protease counterscreen; AID 624483; 360,000 tested, 3.1% active; compound autofluorescence counterscreen, microsphere flow cytometry; hits give high values; fluorescence intensity (no concentration beside the values);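 active = at least 3 SD above the mean of all compounds, about 16000 in these data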;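 also: 100 nL of 1 mM stock went into each well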
# Sa ugtP lethal: growth inhibition of ugtP-null S. aureus, primary screen, RN4220 ugtP deletion, OD600 | 16 h; some inactives read as strong as hits | growth inhibition, % (test concentration not listed) | 330,000 tested, 0.54% active;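 active = z-score under -3 and OD600 up to 0.15 on both plates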;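 also: plate controls were untreated wells for no effect and antibiotic for full effect; wells of about 80 µL received 100 nL stock; the first replicate is given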
# Mtb hypoxia inh: PubChem AID 1159583 | 300,000 tested, 0.1% active | M. tuberculosis hypoxia-regulated fluorescent reporter, fluorescence | fluorescence inhibition, % (no concentration beside the values);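 active = 35 to 45% if threefold the growth effect, above 45% if 1.5-fold the growth effect; inactive = the rest, general growth blockers included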;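 also: wells of about 50 µL received 100 nL stock; 0% = vehicle wells and 100% = reference inhibitor wells; whole bacteria with a GFP reporter of the hypoxia response; strong numbers were not always called active; many hits fall short of the cut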
# Mtb hypoxia inh growth: also measured in Mtb hypoxia inh; calls as there; growth inhibition, %; measured here: M. tuberculosis growth (absorbance);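 0% = vehicle and 100% = reference antibiotic; read after six days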
# * = called active by the depositor; · = not tested or not shown; & = joins results of further samples.
Structure	PrP UTR inh	RN4220 kill	BJeLR lethal	Autofluor counter	Sa ugtP lethal	Mtb hypoxia inh	Mtb hypoxia inh growth
COc1ccccc1OCC(=O)Nc1cc(S(=O)(=O)N2CCCCC2)ccc1N1CCCCC1	-18	·	-11	2901	·	·	·
CCNC(=S)NNC(=O)c1ccc(S(=O)(=O)NCc2ccco2)cc1	6	2.8	·	2946	-2	5	6
CCN1CCCc2cc(CN(CCN3CCOCC3)C(=O)Nc3ccc(C)c(C)c3)ccc21	-10	2.8	-18	20262*	4	-3	-2
NC(=O)Nc1ccc(F)cc1	-20	0.0	-2	3260	0	1	7
CCCn1c(SCC(=O)Nc2cc(Cl)ccc2OC)n[nH]c1=O	-19	4.0	5	3178	-10	2	-1
COc1ccc([N+](=O)[O-])cc1NS(=O)(=O)c1cc(C(=O)N2CCN(C)CC2)ccc1OC	-11	1.6	·	3955	5	13	1
COc1ccc(NC(=O)CSc2ccccn2)c([N+](=O)[O-])c1	·	7.0	-3	·	5	12	-3
Cc1oc2cc3oc(=O)c(CC(=O)N[C@@H](C)C(=O)NC(Cc4ccc(Cl)cc4)C(=O)O)c(C)c3cc2c1C (stereo not given in full)	-59	1.9	-15	5430	11	·	·
CC(=O)c1c(NCCc2ccccc2)nc(=S)n(-c2ccccc2)c1C	-17	3.3	5	4994	2	0	13
CC1CC(=NNC(=O)c2cccnc2)CC(C)(C)C1 (stereo not given)	·	-0.2	·	·	0	16	8
Nc1ccccc1SCCS(=O)(=O)c1ccc(Cl)cc1	5	7.8	1	3001	9	16	11
CCOC(=O)C1=C(C)NC(C)=C(C(=O)OCC)C1C(=O)OCC(=O)N(C)Cc1ccccc1	-24	2.2	·	3088	-1	5	-2
c1csc(-c2nnsc2-c2nc3ccccc3[nH]2)c1	-7	-0.7	6	4763	0	·	·
O=C(CSc1nnc(CNC(=O)c2ccco2)o1)Nc1ccccc1	-13	6.8	-5	2572	8	-12	-2
Cc1cc(C)c2sc(N(CCN(C)C)C(=O)CCS(=O)(=O)c3ccccc3)nc2c1	-5	-1.4	7	6247	-6	-2	6
CNc1nc(C)nc(-n2nc(C)cc2C)n1	-11	0.9	2	4902	-2	·	·
CC(C)C[C@H]1COCCS(=O)(=O)N1Cc1ccc(Cl)c(Cl)c1	-15	·	6	2932	·	·	·
CC(C)Oc1ccc(CNC(=O)c2ccc3c(c2)N(C)CCS3)cc1	-21	-25	-3	4488	3	7	9
NC(=O)CC(NC(=O)Cc1cccc2ccccc12)c1ccc(NCCN2CCCCC2)c([N+](=O)[O-])c1 (stereo not given)	0	22	7	2948	14	1	-1
O=C(c1ccc2oc(Cc3ccc(Cl)cc3)nc2c1)N1CC[C@H](O)C1	-11	-1.0	8	5777	-7	-2	15
C=CCNc1sc(C(=O)c2cccs2)c(N)c1C#N	-9	1.4	-1	10105	5	7	1
Cc1cc(C)nc(N/C(=N\S(=O)(=O)Cc2ccccc2)Nc2ccccc2Br)n1	-22	4.0	-3	10658	-4	6	12
COc1cccc(C(=O)NNS(=O)(=O)c2ccc(C)cc2)c1	-4	5.7	3	4259	6	0	11
CCOC(=O)C1=NN(N=O)C2(CC(=O)N(c3cc(C)cc(C)c3)C2=O)C1 (stereo not given)	-9	4.3	-9	24546*	-3	4	9
COc1ccc(-n2cnc3cc(C(=O)N4CCC5(CC4)OCCO5)ccc32)cc1	-29	-0.6	5	2243	3	6	3
CCn1ncc(Br)c1C(=O)Nc1cc(C)on1	-9	4.4	-1	4254	1	9	1
COc1ccc(CCNC2CCCCC2)cc1OC	-8	3.6	-6	2463	5	5	-4
Cc1ccc(S(=O)(=O)N2CCN(CC(=O)NC(=O)NCc3ccco3)CC2)cc1C	-11	3.7	6	4793	-1	10	0
Cc1ccc(N(CC(=O)NC2CCCCC2)C(=O)CNC(=O)c2cccs2)cc1	-1	3.2	-3	4174	-1	1	0
O=C1NC(=O)N(c2ccccc2)C(=O)/C1=C/C=C/c1ccco1	-35	·	26	4193	·	·	·
Nc1cc(OCc2ccccc2)ccc1OCc1ccccc1	-62	6.6	·	4186	8	7	11
O=C(O)c1ccc(COc2ccc(Cl)cc2)o1	11	6.1	-7	4415	6	5	5
Cc1ccc(NC(=O)C(=O)NCc2ccco2)c(C)c1	-43	12	1	4604	8	12	2
CCOC(=O)C1=CN(Cc2ccco2)S(=O)(=O)N(C)C1c1ccc(C(F)(F)F)cc1 (stereo not given)	1	1.5	·	4012	4	3	-5
COc1ccc(NC(=O)c2cnc(NS(=O)(=O)c3ccccc3)nc2)cc1	-16	-0.3	-4	3470	0	7	10
CN1CCC2(CC1)NC(=O)NC2=O	9	0.8	5	2839	3	·	·
CCOC(=O)c1nn(-c2ccccc2)c(C#N)c1NC(=O)c1nn(CC)cc1Br	-11	9.9	2	8216	-16	13	6
COC(=O)c1ccc(/C=N/NC(=O)CC(=O)NC2CCCCC2)cc1	-13	·	-5	2631	·	·	·
O=C(N/N=C/c1ccc(Cl)c([N+](=O)[O-])c1)C1CC1	-21	·	-16	2190	·	·	·
Cc1cccc(C)c1NC(=O)C(NC=O)c1ccc(Cl)cc1 (stereo not given)	-13	1.5	-1	2412	-2	·	·
COC(=O)C(c1ccccc1)N1CCCCCC1 (stereo not given)	-19	4.5	-4	2927	1	·	·
Cc1ccc(-c2nc(SCC(=O)Nc3cc(S(=O)(=O)N4CCCCC4)ccc3Cl)n[nH]2)cc1	-22	-2.8	10	11255	-12	2	11
C=CCC(O)(CCN1CCCCC1)c1ccccc1 (stereo not given)	-2	0.2	1	2576	2	·	·
CCC12CN3CCN(CC(C3)C1O)C2 (stereo not given)	-5	0.7	9	6215	-3	-2	6
O=c1[nH]c(=O)n(Cc2ccccc2)c(O)c1/C=N/Nc1c(F)c(F)c(F)c(F)c1F	·	6.0	-4	5586	9	7	11
Cc1ccc(NC(=O)CN2C(=O)NC(C)(CC(C)C)C2=O)cc1F (stereo not given)	-18	3.8	·	3466	-4	6	4
COc1ccc(-n2cc(-c3ccc(Cl)cc3)[nH]c2=S)cc1	-44	1.6	-4	3957	11	8	14
CC(=O)c1c(C)[nH]c(C(=O)CSc2nnc(-c3cccs3)n2Cc2ccccc2)c1C	-6	4.0	-10	11137	0	7	7
COc1ccc(C)cc1N(C(=O)c1ccccc1)c1nc2ccccc2s1	-17	-4.8	-16	2645	85	·	·
CCOC(=O)C1(C)C=C(Nc2ccc(O)cc2)C(=O)N1c1ccc(O)cc1 (stereo not given)	5	1.7	4	2072	-3	-8	-7

# (cont.)
Structure	PrP UTR inh	RN4220 kill	BJeLR lethal	Autofluor counter	Sa ugtP lethal	Mtb hypoxia inh	Mtb hypoxia inh growth
Cc1cc(C)c(C(=O)CSc2nnc(N)s2)c(C)c1	-29	4.5	6	4766	12	13	15
COc1ccc(-c2cc(C(=O)Nc3c(C)nn(Cc4ccc(Cl)cc4)c3C)no2)cc1	-16	5.7	4	11184	-3	8	7
COc1ccccc1C(=O)N/N=C/c1ccc(Cl)s1	-36	·	6	3015	·	·	·
O=C(/C=C/c1cccc(Cl)c1)N1CCC(Cc2ccccc2)CC1	-35	2.1	4	2103	-13	5	11
Cc1onc(-c2c(F)cccc2Cl)c1C(=O)N1CCCc2ccccc21	-14	14	2	2814	-7	-2	2
N#Cc1ccc(C(=O)Nc2nnc(-c3ccco3)o2)cc1	-5	3.6	-10	3956	14	-7	-11
COc1ccc(S(=O)(=O)N(CC(=O)NCc2ccco2)c2ccccc2)cc1OC	-10	2.0	-1	4293	11	·	·
Cc1ccccc1N1CCN(c2ncnc3scc(-c4cccs4)c23)CC1	-8	8.7	2	21408*	-7	11	7
O=C1NN(c2ccc(Br)cc2)C(=O)/C1=C\c1ccc(O)cc1O	-18	·	1	3678	·	·	·
CCCNC(=O)/C=C/c1ccc(S(=O)(=O)Nc2ccccc2OC)cc1	-29	·	-5	2304	·	·	·
N#C/C(=N\O)c1nc(-c2ccccc2)cs1	-5&-19	·	3&-5	8954&9964	·	·	·
Cc1ccccc1-n1ccnc1SCC(=O)O	-14	-0.9	7	3447	-6	0	13
CCn1c(=O)c(C(=O)CN(C)Cc2cccc(OC)c2OC)c(N)n(Cc2ccccc2)c1=O	-16	2.3	-3	2156	-1	·	·
CC1CCC(NC(=O)CCN2C(=O)C3CC=CCC3C2=O)CC1 (stereo not given)	0	4.8	·	·	7	0	0
CCCn1c(C)cc(/C=C(\C#N)C(=O)OCC(=O)Nc2cccc(OC)c2)c1C	-13	-3.2	8	2780	-2	3	-4
CCSc1nnc2c3cc(CC)ccc3n(C)c2n1	-12	6.2	-1	2966	6	1	-2
COc1cccc(C2=NOC(C(=O)Nc3cccnc3)C2)c1 (stereo not given)	-26	2.5	7	11359	6	9	3
O=C(NCc1ccccc1F)c1ccc(S(=O)(=O)Nc2cccc(C(F)(F)F)c2)cc1	-12	5.6	6	2187	-16	11	4
CC1CN(c2oc(-c3cccs3)nc2C#N)CC(C)O1 (stereo not given)	-14	1.2	2	2406	5	·	·
CCn1c2ccc(F)cc2c2nnc(SCCN3CCOCC3)nc21	-11	2.3	-1	3874	0	13	0
Cc1cnc(C(=O)Nc2nc(-c3ccccc3)cs2)cn1	-25	2.5	10	2079	-19	2	2
O=C(NNC(=O)c1n[nH]c(=O)c2ccccc12)c1ccc(Br)cc1	-12	3.4	5	4377	11	7	5
COc1ccc(OC)c(C2C(C(=O)c3ccco3)=C(O)C(=O)N2CCN2CCOCC2)c1 (stereo not given)	-5	·	-2	5480	·	·	·
Cc1sc(NC(=O)CSc2nnc(N)s2)c(C#N)c1C	-1	1.3	-9	5519	2	-5	9
O=C1CCC(=O)N1OCCCOc1ccccc1	-1	2.4	-7	17200*	3	15	6

# Full records from above. Values in the order: PrP UTR inh, RN4220 kill, BJeLR lethal, Autofluor counter, Sa ugtP lethal, Mtb hypoxia inh, Mtb hypoxia inh growth
# `O=C1NN(c2ccc(Br)cc2)C(=O)/C1=C\c1ccc(O)cc1O` reads -18, ·, 1, 3678, ·, ·, ·
# `Cc1cc(C)c(C(=O)CSc2nnc(N)s2)c(C)c1` reads -29, 4.5, 6, 4766, 12, 13, 15
# `N#Cc1ccc(C(=O)Nc2nnc(-c3ccco3)o2)cc1` reads -5, 3.6, -10, 3956, 14, -7, -11
# `CCCNC(=O)/C=C/c1ccc(S(=O)(=O)Nc2ccccc2OC)cc1` reads -29, ·, -5, 2304, ·, ·, ·

# Going on with the list.
Structure	PrP UTR inh	RN4220 kill	BJeLR lethal	Autofluor counter	Sa ugtP lethal	Mtb hypoxia inh	Mtb hypoxia inh growth
Cc1occc1C(=O)Nc1cc(C(F)(F)F)ccc1Cl	-26	4.1	12	3988	0	20	13
N=c1ccn2c(n1)O[C@H]1[C@H](O)[C@@H](CO)O[C@H]12	40	1.2	-1	3525	-1	-7	4
O=C(Cc1ccccc1[N+](=O)[O-])NC1CCN(Cc2ccccc2)CC1	-29	0.5	-8	3970	3	-11	-5
O=S(=O)(c1ccc(F)cc1)N1CCN(c2ccccc2)CC1	-14	-0.1	-4	20200*	5	-7	-10
COc1ccc(NC(=O)C2CCCN(S(=O)(=O)c3ccccc3)C2)c(OC)c1 (stereo not given)	-18	6.4	5	5248	0	14	6
O=C(COn1nnc2ccc(C(F)(F)F)cc21)Nc1nnc(-c2ccccc2)o1	-20	29	3	4312	12	·	·
CC1CCC2C(=O)N(c3ccccc3OC(=O)c3ccccc3)C(=O)C2C1 (stereo not given)	-12	4.5	12	14787	0	7	3
COc1ccc(C(=O)NCC(O)COc2ccc(C(C)(C)C)cc2)cc1[N+](=O)[O-] (stereo not given)	·	5.4	-1	·	-6	9	10
CC(=O)Nc1ccc(NC(=O)C(C)OC(=O)C(C)SCC(=O)Nc2ccc(F)cc2)cc1 (stereo not given)	-13	2.0	5	6145	-1	13	3
Cc1cc(C)nc(SCC(=O)N/N=C/c2cccn2-c2ccc(O)cc2)n1	-7	·	2	3242	·	·	·
c1ccc(NN=C2c3ccccc3-c3ccccc32)cc1	-21	-21	·	3889	81	16	9
O=C1CNC(=S)N1C(CO)c1ccccc1 (stereo not given)	-26	-1.2	2	3805	15	7	2

# Assay outcomes as filed in PubChem.
